Source: PubChem BioAssay
PrP 5UTR inh – inhibition of PrP 5' UTR reporter expression | cell-based PrP 5' UTR mRNA reporter, plate reader | inhibition, % (concentration not given with the values) | 340,000 tested, 0.35% active | AID 488862;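 active = every replicate at 50% or more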;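 note: 0 = median of the neutral control wells; tested in H4 reporter cells; numbers are from one replicate; inactives centre near -14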
ugtP null kill – growth inhibition of S. aureus ugtP deletion strain. S. aureus RN4220 ugtP deletion, OD600 growth, 16 h; some inactives read as strong as hits. AID 1259309. 330,000 tested, 0.54% active. growth inhibition, % (concentration not given with the values);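 active = z-score under -3 and OD600 up to 0.15 on both plates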;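 note: plate controls were untreated wells for no effect and antibiotic for full effect; wells of about 80 µL received 100 nL stock; the first replicate is given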
Mtb hypoxia rep – inhibitors of hypoxia-regulated fluorescent reporter in Mycobacterium tuberculosis; fluorescence inhibition, % (no concentration beside the values); M. tuberculosis hypoxia-regulated fluorescent reporter, fluorescence; 300,000 tested, 0.1% active;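 active = 35 to 45% if threefold the growth effect, above 45% if 1.5-fold the growth effect; inactive = the rest, general growth blockers included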;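 note: wells of about 50 µL received 100 nL stock; 0% = vehicle wells and 100% = reference inhibitor wells; whole bacteria with a GFP reporter of the hypoxia response; strong numbers were not always called active; many hits fall short of the cut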
Autofluor counter – counter-screen for toxin protease inhibitors: compound fluorescence. compound autofluorescence counterscreen, microsphere flow cytometry; hits give high values. AID 624483. 360,000 tested, 3.1% active. fluorescence intensity (no concentration beside the values);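 active = at least 3 SD above the mean of all compounds, about 16000 in these data; inconclusive = too few beads counted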;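 note: 100 nL of 1 mM stock went into each well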
BJeLR lethal – BJeLR cell viability loss | BJeLR (HRASV12) viability, CellTiter-Glo ATP luminescence, 48 h; reference of the scale not given here | inhibition, % (test concentration not listed) | 300,000 tested, 0.17% active;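 active = replicate mean above 50%; inconclusive = above 50% but judged a plate artefact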;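 note: 50 nL library stock added to about 25 µL; numbers are from one replicate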
RN4220 kill – S. aureus RN4220 growth inhibition; OD600, 16 h; inhibition, % (concentration not given with the values); 330,000 tested, 0.33% active;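 active = z-score of -3 or lower and OD600 up to 0.18 on both plates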;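 note: plate controls were untreated cells for no effect and reference antibiotic for full effect; stock transfer was 100 nL into about 80 µL; one replicate is shown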
Mtb hypoxia rep growth – recorded beside Mtb hypoxia rep, whose call it bears; growth inhibition, %; measured here: M. tuberculosis growth (absorbance);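 0% = vehicle and 100% = reference antibiotic; read after six days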
An asterisk follows results filed as active; ? = inconclusive; · = not tested or not shown.

SMILES	PrP 5UTR inh	ugtP null kill	Mtb hypoxia rep	Mtb hypoxia rep growth	Autofluor counter	BJeLR lethal	RN4220 kill
COc1ccc(C(=O)NCC(O)CN2CCOCC2)cc1[N+](=O)[O-] (stereo not given)	-8	6	15	-2	·	3	1.3
COc1ccc(C(=O)Nc2cccc(NC(=O)c3ccc(OC)c(OC)c3)n2)cc1OC	-18	-3	1	18	4121	8	-1.0
O=C1CC(C(=O)O)c2ccccc2N1 (stereo not given)	-23	12	-2	5	9635	0	5.1
Cc1ccc(C2CC(c3ccc(C)cc3)n3nc(N)nc3N2)cc1 (stereo not given)	1	3	·	·	5786	1	-1.4
O=C(Cc1ccc(Cl)cc1)Nc1ccc(SC(F)F)cc1	-27	-24	-18	-2	2142	-2	-7.9
CCC12CN3CC(CC)(CN(C1)C3c1ccc(OC(C)C)cc1)C2=O (stereo not given)	-13	5	7	17	3610	0	5.2
Cc1ccc2oc(-c3ccc(NC(=O)c4ccncc4)cc3O)nc2c1	-56	·	·	·	3542	9	·
CC(=O)c1ccc(N2CCN(C(=S)Nc3ccccc3)CC2)cc1	-25	0	4	4	9699	2	-0.8
O=C(N/N=C\c1ccccc1)c1ccccc1-n1cccc1	-5	·	·	·	3195	6	·
CCn1c(SCC(=O)NN=Cc2ccc(O)c(OC)c2)nc2ccccc21	·	-1	0	5	·	·	0.0
COc1cc(C2N(c3ccc(Cl)cc3)C(=O)C3CCCN32)cc(OC)c1OC (stereo not given)	-8	0	·	·	8322	0	-3.9
COc1ccccc1N1CCN(C(=O)c2cc(C3CC3)on2)CC1	-13	2	18	10	4969	1	6.0
O=C(C1CCCO1)N1CCN(c2c3c(nc4cc(-c5ccc(F)cc5)nn24)CCC3)CC1 (stereo not given)	-34	-1	9	6	7957	-6	23
Cc1ccccc1-c1nc(CN2CCC(C(=O)NCCCN3CCOCC3)CC2)c(C)o1	-12	-9	6	20	26327*	0	2.7
CC(C)COc1ccc2[nH]c3c(c2c1)CCCC3=O	4	15	12	5	3018	4	19
COc1ccc(/C(C)=N/NC(=S)NCc2ccco2)cc1	-10	·	·	·	1937	-15	·
O=C(COc1ccccc1)N1CCN(C2CCCC2)CC1	1	-3	·	·	2893	-5	-0.6
CCCn1c(CN2CCN(C(=O)OCC)CC2)nc2cc(NC(=O)CC)ccc21	-43	17	9	7	3514	28	-1.9
CCc1ccc(NC(=O)CCc2nc3sc4c(c3c(=O)[nH]2)CCCC4)cc1	-15	-4	-9	-2	?	6	5.2
CCOC(=O)c1ccc(N2C(=O)c3n[nH]c(C)c3C2c2ccc(OC)c(OC)c2)cc1 (stereo not given)	-16	-6	-2	6	19224*	-6	4.1
O=C(c1ccccc1)c1cn(CC(=O)N2CCCC2)c2ccccc12	-11	0	-4	0	6323	13	5.2
COc1ccc(CCN(C)C(=O)c2cccc(S(=O)(=O)N3CCN(c4ccc(F)cc4)CC3)c2)cc1OC	6	0	-5	6	3712	·	11
COc1cc(OC)cc(C(=O)N[C@H](C(=O)OCC(=O)Nc2ccc(OC)c(OC)c2)C(C)C)c1	-29	0	8	4	4212	6	3.7
Cc1ccc(C(=O)NNC(=O)C2CCN(c3nccc(C)n3)CC2)cc1	-24	-5	4	4	13190	4	2.4
O=C(c1cc(-c2cccs2)nn1-c1ccccc1)N1CCN(S(=O)(=O)c2ccccc2)CC1	1	7	-6	4	6621	-6	-3.5

The list goes on; the last 5 above are carried over.
SMILES	PrP 5UTR inh	ugtP null kill	Mtb hypoxia rep	Mtb hypoxia rep growth	Autofluor counter	BJeLR lethal	RN4220 kill
O=C(c1ccccc1)c1cn(CC(=O)N2CCCC2)c2ccccc12	-11	0	-4	0	6323	13	5.2
COc1ccc(CCN(C)C(=O)c2cccc(S(=O)(=O)N3CCN(c4ccc(F)cc4)CC3)c2)cc1OC	6	0	-5	6	3712	·	11
COc1cc(OC)cc(C(=O)N[C@H](C(=O)OCC(=O)Nc2ccc(OC)c(OC)c2)C(C)C)c1	-29	0	8	4	4212	6	3.7
Cc1ccc(C(=O)NNC(=O)C2CCN(c3nccc(C)n3)CC2)cc1	-24	-5	4	4	13190	4	2.4
O=C(c1cc(-c2cccs2)nn1-c1ccccc1)N1CCN(S(=O)(=O)c2ccccc2)CC1	1	7	-6	4	6621	-6	-3.5
O=C(Nc1nnc2n1CCS2)c1ccco1	-21	·	·	·	5837	10	·
COc1ccc(-c2nnc(SCC(=O)N/N=C/c3ccccc3C(=O)O)n2-c2ccc(Cl)cc2)cc1	-21	·	·	·	4586	-1	·
Cc1ccc2c(c1)C(c1ccccc1)N(C(=O)c1ccccc1[N+](=O)[O-])CC(=O)N2 (stereo not given)	-7	2	-4	-4	3895	-7	3.9
O=C(CNc1ccccc1Cl)NN=C1CCCc2ccccc21	·	5	0	6	·	·	-2.5
COc1ccc(S(=O)(=O)NCc2ccccc2)cc1	-33	-4	13	8	21265*	9	4.1
CCC1CCCCN1C(=O)CSc1nnc(CNC(=O)c2c(F)cccc2Cl)o1 (stereo not given)	-7	3	3	-5	5600	-6	-0.6
CCOc1ccc(NC(=O)c2cn(-c3ccc(OCC)cc3)c(=O)c3cc(OC)c(OC)cc23)cc1	-11	1	5	20	8217	-33	-0.3
C/C(CC(=O)NCCCN1CCOCC1)=N\NC(=O)COc1cccc2ccccc12	-20	·	·	·	9354	-5	·
O=C(CSc1nnc(Nc2ccccc2)s1)Nc1ccc(S(=O)(=O)N2CCOCC2)cc1	-6	8	·	·	2640	-6	2.1
O=C(O)c1cccc(Nc2nc3ccccc3nc2NS(=O)(=O)c2ccccc2)c1	-22	1	12	11	3978	·	5.6
CC1(C)CC(=O)C2=C(C1)N(c1ccc(F)cc1)C(=O)C2(NC(=O)c1ccccc1F)C(F)(F)F (stereo not given)	-12	-4	1	-9	9945	-2	-1.3
Nc1ccc(Cl)c(S(=O)(=O)Nc2ccc(Cl)cc2)c1	-23	8	12	-2	?	0	0.2
CCCCc1ccc(NC(=S)NCc2ccc(OC)cc2)cc1	-42	0	-12	2	2484	-1	4.1
COc1ccc(COCC(O)CN2CCC(C(N)=O)CC2)cc1OC (stereo not given)	-37	-13	5	-4	2629	1	-3.6
Cc1cc(=O)oc2cc(OCC(=O)N3c4ccccc4CC3C)ccc12 (stereo not given)	-13	8	5	4	2399	16	3.9
Cc1ccc(CN2C(=O)CCSc3ccc(Cl)cc32)cc1	-11	29	·	·	2810	5	-1.9
CCN(CC)c1ccc(C=NNC(=O)c2cnccn2)cc1	·	1	3	2	·	·	4.4
O=C(COC(=O)C12CC3CC(CC(C3)C1)C2)Nc1nc2c(F)c(F)c(F)cc2s1	-15	·	·	·	2528	3	·
COc1cccc(C2=NC(C)(C)NC(c3ccccc3O)C2)c1 (stereo not given)	-40	-14	·	·	2612	-6	6.1
CCOC(=O)/C(=N\Nc1ccccc1Cl)N1CCN(C)CC1	-11	·	·	·	10405	8	·
CC(=NNC(=O)c1ccccc1F)c1cccc(NC(=O)c2ccccc2)c1	·	0	3	3	·	·	3.2
Cc1cc(C(=O)OCC(=O)N2CC(=O)Nc3ccccc32)no1	-18	-7	9	2	11289	-6	5.4
Cc1ccccc1C(=O)N1CCC(C(=O)Nc2ccccc2N2CCCC2)CC1	-8	3	7	8	4858	-8	1.4
O=c1[nH]c(CSc2nnc3ccccn23)nc2cc(C(F)(F)F)ccc12	·	2	-3	-12	·	4	3.7
COc1ccc(NC(=O)CCc2nc(-c3ccc(C)cc3)no2)c(OC)c1	-8	-2	·	·	4676	-9	1.4

Remaining list, next part:
SMILES	PrP 5UTR inh	ugtP null kill	Mtb hypoxia rep	Mtb hypoxia rep growth	Autofluor counter	BJeLR lethal	RN4220 kill
COC(=O)c1ccccc1NC(=O)CSc1nncn1-c1ccccn1	-24	3	-12	-1	5722	-6	1.3
NC(=O)C1CC(=O)N(c2ccc(OCC(=O)Nc3cccc(C(F)(F)F)c3)cc2)C1 (stereo not given)	-13	10	·	·	2410	-15	-0.6
Cc1ccc(NC(=O)c2ccco2)c(NC(=O)c2ccc(Cl)cc2)c1	-3	7	8	2	3998	-8	5.9
COc1ccccc1CNC(=O)c1nccnc1CO	-11	2	2	-4	3432	0	1.6
Cc1cc(C)c(C(=O)OCCNC(=O)c2cccnc2)cc1C	·	2	5	4	9383	2	3.2
CCCCN1C[C@H](Cc2ccccc2)[C@@H](CC(=O)Nc2ccccc2)C1=O	3	·	·	·	2894	-3	·
COC(=O)C1=C(N)Oc2c(c(=O)oc3ccccc23)C1c1cccnc1 (stereo not given)	0	8	10	10	2804	-4	5.5
N=c1c(C(=O)NCCc2ccccc2)cc2c(=O)n3ccccc3nc2n1CC1CCCO1 (stereo not given)	-15	·	·	·	6396	2	·
CN(C)c1ccc(NC(=O)CSCc2nc3c(nnn3Cc3ccc(F)cc3)c(=O)[nH]2)cc1	·	-6	-2	8	11256	2	1.6
COc1ccc(N(C)S(=O)(=O)c2cccc(C(=O)NC3CCCC3)c2)cc1	-18	·	·	·	4551	-3	·
O=C(CSc1nnc(-c2ccccc2F)n1C1CC1)Nc1ccc2[nH]c(=O)[nH]c2c1	-13	1	-6	7	3465	12	4.4
CC(C)NC(=O)COc1coc(CN2CCN(c3cccc(Cl)c3)CC2)cc1=O	-20	0	3	3	5428	10	3.3
COC(=O)Cn1ccc(-c2ccc(Cl)cc2)c(C#N)c1=O	-13	2	4	1	4288	0	5.1
Cc1cc(NC(=O)C2CC2)ccc1NC(=O)c1cccs1	5	14	9	1	3245	-2	3.8
O=C1CCC(/C=C/c2ccccc2)=NN1Cc1ccccc1	-4	8	7	8	2041	-6	5.6
O=C(CC1Sc2ccccc2NC1=O)NCc1ccccc1 (stereo not given)	-19	5	15	8	3975	-2	1.0
Clc1ccc(SCCCCn2cncn2)cc1	-9	14	·	·	3547	8	5.3
CC(=O)N(Cc1cc2cc(C)c(C)cc2n2nnnc12)CC1COCCO1 (stereo not given)	-26	3	1	9	22636*	-4	0.6
FC(F)(F)c1cccc(N2CCN(CC3CC4C=CC3C4)CC2)c1 (stereo not given)	-23	-5	9	10	5744	6	3.7
COc1ccccc1NC(=O)CSc1nnc(C)o1	-12	2	14	10	4117	-13	-1.5
O=C(O)c1ccc(/C=C/C(=O)c2ccc3c(c2)OCCCO3)cc1	-170	·	·	·	4883	1	·
COc1ccc(NC(=O)CN2CCN(c3nc(-c4ccc(F)cc4)cs3)CC2)c(OC)c1	-15	-10	10	19	1956	5	0.9
CCC(C)c1ccc(S(=O)(=O)Nc2cccnc2)cc1 (stereo not given)	-21	-8	14	7	3532	-1	6.7
COc1ccccc1N(C)S(=O)(=O)c1ccc(C(=O)NNC(=O)c2ccccc2O)cc1	-3	0	9	-4	5987	·	7.8
COc1ccc(NC(=O)c2ccccc2N2C(=O)C3C4C=CC(C5CC45)C3C2=O)c(OC)c1 (stereo not given)	1	13	1	-8	4572	-1	5.4
O=C(CSc1ncnc2nc[nH]c12)N1CCOCC1	-17	1	9	5	13911	1	3.9
CCCCOC(=O)C1=C(C)Nc2ncnn2C1c1ccc(OC)c(OC)c1 (stereo not given)	-10	-6	7	12	21510*	-5	-0.2

Of the compounds above, 3 have a thiophene ring, fused or not:
SMILES	PrP 5UTR inh	ugtP null kill	Mtb hypoxia rep	Mtb hypoxia rep growth	Autofluor counter	BJeLR lethal	RN4220 kill
CCc1ccc(NC(=O)CCc2nc3sc4c(c3c(=O)[nH]2)CCCC4)cc1	-15	-4	-9	-2	?	6	5.2
O=C(c1cc(-c2cccs2)nn1-c1ccccc1)N1CCN(S(=O)(=O)c2ccccc2)CC1	1	7	-6	4	6621	-6	-3.5
Cc1cc(NC(=O)C2CC2)ccc1NC(=O)c1cccs1	5	14	9	1	3245	-2	3.8

An unsorted share of the library; any-hit rate near 3.9%.
